# Vaccinia mCherry = vaccinia inhibition (mCherry reporter); Potency, µM (top dose mostly 36.5 µM), for the others: top-dose activity change, negative = inhibition, actives largely listed as inhibitors; hit rate 0.63% among 310,000; Vaccinia virus mCherry reporter infection, fluorescence; about a quarter of the inactives have no number; active = well fitted inhibition curve with a large enough effect; inconclusive = small, poorly fitted or top-dose-only effect; inactive = no such curve, though single readings can be large or run the other way; tested in A549 cells; also: nearly all actives have a fitted effect of over 35% in size; inactives centre near -10
# VACV Venus inh = inhibitors of vaccinia virus (Venus reporter). Potency, µM (series often up to 36.5 µM), for inactives: at the highest dose activity change, negative = inhibition, usual class: inhibitors. Vaccinia virus Venus reporter expression, fluorescence. hit rate 0.46% among 330,000. AID 720580; active means well fitted inhibition curve with a large enough effect; inconclusive means small, poorly fitted or top-dose-only effect; inactive means no such curve, though single readings can be large or run the other way; tested in A549 cells; also: nearly all actives have a fitted effect of over 30% in size; inactives centre near -10
# An asterisk follows results filed as active; i = inactive; ? = inconclusive; . = not tested or not shown; & = joins results of further samples; [ ] = another dose, or the depositor's remark. % is scaled to controls: 0 for no effect and ±100 for the full control effect; potency is read from the fitted curve at half-maximal effect.
# The first 3 records, ahead of the listing:
# Values in the order – Vaccinia mCherry	VACV Venus inh
CCCNC(=O)C1(C)CCN(Cc2ccc(OCc3ccccc3)cc2)C1 (centres undefined)
 : -10%	-24%
COc1cc(OC)c(NC(=S)Nc2cc(Cl)cc(Cl)c2)cc1Cl
 : -22%	-11%
COCCN=c1scc(-c2cccs2)n1/N=C/c1ccc(O)c(O)c1O
 : 11µM*	?

# Main list (from the top)
# Values in the order – Vaccinia mCherry	VACV Venus inh
CCCNC(=O)C1(C)CCN(Cc2ccc(OCc3ccccc3)cc2)C1 (centres undefined)
 : -10%	-24%
COc1cc(OC)c(NC(=S)Nc2cc(Cl)cc(Cl)c2)cc1Cl
 : -22%	-11%
COCCN=c1scc(-c2cccs2)n1/N=C/c1ccc(O)c(O)c1O
 : 11µM*	?
C=CCn1c(SCC(=O)NC2CCCC2)nnc1-c1ccccn1
 : -2%	-13%
O=C(O)c1ccc(NCc2nc3ccccc3n2CCOc2ccccc2Cl)cc1
 : -2%	-7%&-7%
Cc1ccc(SCCSc2ncccn2)cc1
 : i	-5%
CC(C)C1Nc2ccc(S(=O)(=O)N3CCOCC3)cc2NC1=O (centres undefined)
 : -6%	-10%
Cc1ccsc1/C=N/N1CCN(C2c3ccccc3-c3ccccc32)CC1
 : .	-10%
N#CC1(Nc2ccc(Br)cc2)CCCC1
 : -15%	4%
Cc1ccc(Cl)c(OCC(=O)N(C)CC(=O)Nc2ccc(N3CCOCC3)cc2)c1
 : -17%	-3%
Cc1ccc(CNC(=O)C2COc3ccccc3O2)cc1 (centres undefined)
 : -20%	-7%
Nc1nc(SCC(=O)c2cccs2)n[nH]1
 : i	-21%
S=C(Nc1ccc2nsnc2c1)N1CCCCC1
 : i	-6%
COc1cc(C(=O)NCCN2C(=O)S/C(=C\c3ccc(F)cc3)C2=O)ccc1OCC(=O)N1CCOCC1
 : -8%[7.34 µM]	2%[7.34 µM]
CC(OC(=O)CCCN=C1NS(=O)(=O)c2ccccc21)C(=O)NC1CCCCC1C (centres undefined)
 : i	7%
COC(=O)c1ccc(CC2(C)C(=O)Nc3ccc(OC(F)(F)F)cc32)o1 (centres undefined)
 : -7%	-17%
CC(/C=C/C(=O)c1ccc(C)cc1)=C\c1ccccc1
 : -26%	1%
CCCCn1c(N)c(N(CC(C)C)C(=O)c2cccc(S(=O)(=O)N3CCN(C)CC3)c2)c(=O)[nH]c1=O
 : -12%	-8%
COc1ccc(C(=O)Nc2ccccc2)cc1S(=O)(=O)Nc1cc(C)on1
 : -5%	-7%
CCOc1cc(/C=N/n2cnnc2)ccc1OS(=O)(=O)c1ccccc1
 : -6%	-1%
C[C@H]1C(c2ccc(F)cc2)=NN(c2ccccc2)[C@@H]1CO
 : ?	-19%
CCC(=O)Nc1nnc(C)s1
 : -7%	-15%
N/C(=N\OC(=O)c1cccc(Cl)c1)c1ccccn1
 : -6%	-9%
O=C(O)c1ccc(NCCc2ccc(Cl)cc2)c([N+](=O)[O-])c1
 : -18%	-17%
COc1ccc(-c2ccc3c(c2)S(=O)(=O)c2cccc(C(=O)NC4CCCC4)c2C3=O)cc1OC
 : -26%	-21%
CCCCCn1c(CN2CCN(C(=O)c3ccco3)CC2)nc2c1c(=O)n(C)c(=O)n2C
 : -5%	-3%
COc1cc(C(CC(=O)Nc2ccc(Br)cn2)N2Cc3ccccc3C2=O)cc(OC)c1OC (centres undefined)
 : -11%	-6%
Cc1cccnc1NC(=O)c1c(O)c2cccc3c2n(c1=O)CCC3
 : .	3%
CCN(C(=O)Cn1c(=O)oc2ccccc21)C1CCS(=O)(=O)C1 (centres undefined)
 : .	-4%
Cc1cc(Cl)c(OCCOCCN2CCCC(C)C2)c(Br)c1 (centres undefined)
 : -16%	-18%

# Retrieved one by one from above (7):
# Values in the order – Vaccinia mCherry	VACV Venus inh
COc1ccc(-c2ccc3c(c2)S(=O)(=O)c2cccc(C(=O)NC4CCCC4)c2C3=O)cc1OC
 : -26%	-21%
CCCCn1c(N)c(N(CC(C)C)C(=O)c2cccc(S(=O)(=O)N3CCN(C)CC3)c2)c(=O)[nH]c1=O
 : -12%	-8%
COC(=O)c1ccc(CC2(C)C(=O)Nc3ccc(OC(F)(F)F)cc32)o1 (centres undefined)
 : -7%	-17%
CCOc1cc(/C=N/n2cnnc2)ccc1OS(=O)(=O)c1ccccc1
 : -6%	-1%
S=C(Nc1ccc2nsnc2c1)N1CCCCC1
 : i	-6%
CC(OC(=O)CCCN=C1NS(=O)(=O)c2ccccc21)C(=O)NC1CCCCC1C (centres undefined)
 : i	7%
N#CC1(Nc2ccc(Br)cc2)CCCC1
 : -15%	4%

# The list goes on:
# Values in the order – Vaccinia mCherry	VACV Venus inh
CSc1nnc(CCNS(=O)(=O)c2ccccc2Br)n1C
 : 4%	-5%
COc1ccc(Cl)cc1N1C(=O)CC(N2CCN(S(=O)(=O)c3ccccc3F)CC2)C1=O (centres undefined)
 : -1%	-10%
CC1CCN(CCCNC(=O)C2CCN(S(=O)(=O)N3CCCCC3)CC2)CC1
 : -1%	-12%
CCC(Sc1nc2cc3c(cc2c(=O)n1CCCC(=O)NCc1ccc2c(c1)OCO2)OCO3)C(=O)NCCCOC (centres undefined)
 : -7%	-8%
O=C(CSc1nc(-c2ccco2)cc(C(F)(F)F)n1)N1CCN(c2ccc(Cl)cc2)CC1
 : .	-22%
CC(C)N1CCN(Cc2cccn2-c2nccs2)CC1CCO (centres undefined)
 : 4%	1%
CCn1c(=O)c(C(=O)NNS(=O)(=O)c2ccc(NC(=O)OC)cc2)c(O)c2ccccc21
 : 0%	-3%
Cc1occc1-c1nnc(SCC(=O)N(C)C)o1
 : -10%	-12%
CCOC(=O)C1(CCOc2ccccc2)CCN(Cc2ccncc2)CC1
 : -25%	-10%
Cc1cccc(Sc2ccc([N+](=O)[O-])cn2)c1
 : ?	-3%
N#Cc1nc(Cc2cccc3ccccc23)oc1NCc1ccc(F)cc1
 : -8%	-27%
CCN(CC)CC(=O)Nc1sc2c(c1C(=O)c1ccccc1OC)CCC2
 : -19%	-30%
Cc1ccc(C)c(Cn2nnc3c(=O)[nH]c(C4CCN(S(=O)(=O)c5ccc(S(=O)(=O)NC6CC6)cc5)CC4)nc32)c1
 : -22%	?
CC(NCC#Cc1ccccc1)C(O)c1ccccc1 (centres undefined)
 : -18%	-15%
Cc1ccc(NC(=O)Cn2nnc(C(=O)NCc3cccs3)c2N)c(C)c1
 : -4%[7.34 µM]	-1%[7.34 µM]
CCCNC(=O)C1(C)CCCN(Cc2ccc(Oc3ccccc3)cc2)C1 (centres undefined)
 : 0%	3%
Cc1cccc(-c2nc3scc(CCNC(=O)c4ccc(Br)o4)n3n2)c1
 : -6%	-3%
O=C(COC(=O)c1ccc(C(F)(F)F)cc1)NC(=O)C1CCCCC1
 : -15%	-11%
COc1ccccc1N1CCN(CC(=O)NCCc2ccc(S(N)(=O)=O)cc2)CC1
 : -7%	-2%
CCOc1ccc(S(=O)(=O)N(C)c2ccc(OCC(=O)Nc3ccccc3F)cc2)cc1
 : -19%	-10%
N#Cc1nc(-c2cccs2)oc1NCc1ccc2c(c1)OCO2
 : -10%	-17%
COc1ccc(C[C@H]2CN3C(=NC[C@@H]3Cc3ccccc3)N2CCNC(=O)CCC2CCCCC2)cc1
 : ?	?
COc1ccc(C)cc1NC(=O)CN1CCN(CC(=O)Nc2ccccc2F)CC1
 : ?	8%&-30%
COC(=O)Cn1c(=NC(=O)c2cccc(OC)c2)sc2cc(OC)ccc21
 : -10%	0%
COc1ccccc1NC(=O)CN1CCCCCC1
 : i	-11%
CCOC(=O)CNS(=O)(=O)Cc1ccccc1
 : -21%	-3%&-14%
COc1ccc(CCNC(=O)c2cc(C)nc3c2c(C)nn3-c2ccccc2)cc1OC
 : -11%	-7%
O=[N+]([O-])c1ccc(O)c(C(C#Cc2ccccc2)N2CCOCC2)c1 (centres undefined)
 : i	-19%
O=C1C=C(c2ccc(C(=O)O)c(Cl)c2)C[C@@H](c2ccc3c(c2)OCO3)C1
 : i	-4%
CCCN1C(=O)CN(C2CCCCC2)C(=O)C1c1ccc(OC)c(OC)c1 (centres undefined)
 : -1%	5%
COC(=O)Cn1c2[n+](c3ccccc31)CC(O)CS2 (centres undefined)
 : i	-8%
COc1ccc(-c2sc3ccc(-c4ccc5c(c4)OCO5)cc3c2-c2ccc(OC)nc2)cc1
 : -11%	-12%
CCc1cccc(NC(=O)CN(C)S(=O)(=O)c2cccs2)c1
 : -13%	-6%
O=C(COC(=O)C1COc2ccccc2O1)Nc1cccc(S(=O)(=O)N2CCCCC2)c1 (centres undefined)
 : -12%	-2%
CCC(=O)Nc1cccc(NC(=O)c2cccc([N+](=O)[O-])c2C)c1
 : -9%	-1%
Cc1noc(C)c1COc1ccccc1C(=O)NNC(=O)c1ccccc1
 : -10%	-14%
OC1C2(Cc3ccccc3)CN3CCN(C2)CC1(Cc1ccccc1)C3 (centres undefined)
 : -14%	-7%
CC(=O)Nc1ccc(S(=O)(=O)NCC2CCC(C(=O)NCc3ccccc3Cl)CC2)cc1 (centres undefined)
 : -5%	-1%
O=C(NCCOc1ccccc1)C1CCN(C(=O)Nc2ccccc2)CC1
 : 2%	-3%
CN(C)CCOC1c2ccccc2CSc2ccccc21 (centres undefined)
 : i	-5%
Cc1csc(NC(=O)CN2C(=O)C3CC=CCC3C2=O)n1 (centres undefined)
 : .	6%
O=C(C1CCCN(S(=O)(=O)c2cccc3nonc23)C1)N1CCN(c2ccccc2Cl)CC1 (centres undefined)
 : -25%&-29%	-14%&-21%
O=C(COc1ccccc1)OCC(=O)c1c[nH]c2ccccc12
 : -12%	-9%
COc1ccccc1-c1cc(C(=O)N/N=C/c2sccc2C)c2ccccc2n1
 : .	-9%
Cc1csc2ncnc(NC3CCN(Cc4ccccc4)CC3)c12
 : -1%	0%
COc1cccc(OC)c1C1=NC(C)(C)CO1
 : -14%	-8%
Cc1ccc(-n2c3c(cc(-c4nc(-c5ccc(Cl)cc5)cs4)c2=O)C(=O)CC(C)(C)C3)cc1
 : -3%	-3%
CC(Oc1ccc2c(c1)oc(=O)c1ccccc12)C(=O)NCCN1CCOCC1 (centres undefined)
 : -9%	-10%
CC(=O)c1cccc(NS(=O)(=O)c2cc(-c3onc(C)c3C)ccc2C)c1
 : ?	-19%
Cc1sc2nc(-c3cccnc3)nc(Cl)c2c1-c1ccccc1
 : -8%	-20%
COC(=O)COc1ccc2cccc(-n3cnnn3)c2c1
 : -3%	1%
O=[N+]([O-])c1ccc(CNc2ccc(Cl)cc2)s1
 : -25%	-12%
O=C(Cc1ccc(Cl)cc1)Nc1ccc(S(=O)(=O)N2CCOCC2)cc1
 : 1%	4%
COC(=O)[C@]1(C)CCC[C@@]2(C)C3CC[C@@]4(C)C[C@]3(CCC21)CC4=NO (some centres undefined)
 : -24%	-7%
CCc1ccccc1NS(=O)(=O)c1ccc(OC)c2ncccc12
 : -10%	-6%
COc1ccccc1NC(=O)CCCC(=O)OCC(=O)c1ccc(F)cc1
 : i	-15%
CCCn1nnc(NC(=O)/C=C/c2ccccc2)n1
 : i	-11%
Cc1cc(C)c(NC(=O)C(=O)NCc2ccco2)c(C)c1
 : 3%	-1%
O=C(CCc1nnc(-c2ccc3c(c2)OCO3)o1)NC(c1cccnc1)C(F)(F)F (centres undefined)
 : 2%	-6%
Nc1nc(SCC(=O)Nc2cccc([N+](=O)[O-])c2)n[nH]1
 : -11%	2%

# Following part
# Values in the order – Vaccinia mCherry	VACV Venus inh
Cc1cc(C(=O)N/N=C/c2ccc[nH]2)no1
 : -7%	-4%
CCC(Oc1ccccc1)C(=O)Nc1cccc(OCc2cc(=O)n3cccc(C)c3n2)c1 (centres undefined)
 : -15%	-16%
N[C@@H](Cc1ccc(O)cc1)c1nnc([C@H](CO)NC(=O)C2CCNCC2)o1
 : i	-4%
Cc1nc(C#N)c(NCc2ccc3c(c2)OCO3)o1
 : .	-2%
O=C(NC(=S)NCc1ccccc1)c1cccc(Cl)c1
 : -14%	-6%
COC(=O)c1ccc(NC(=O)Nc2ccc(OC)cc2)cc1
 : i	2%
O=C(CN(CCc1ccccc1)C(=O)CN1C(=O)COc2ccccc21)NCc1ccco1
 : i	-10%
Cc1ccc(CN(Cc2ccco2)C(=O)c2ccc(OCC(C)C)cc2)cc1
 : i	0%
N#CC1(c2ccccc2)CCC(=O)N1Cc1ccccc1 (centres undefined)
 : -12%	-7%
Cc1ccc2cccc(OCc3cccc([N+](=O)[O-])c3)c2n1
 : ?	-16%
O=c1[nH]c2ccccc2n2c(-c3ccncc3)nnc12
 : .	-9%
O=C(Nc1ccc(Cl)cc1)c1nc[nH]c1C(=O)N1CCN(c2ccccc2)CC1
 : -16%	-12%
O=S(=O)(/N=C(/Nc1nc2ccccc2s1)c1ccccc1)c1ccccc1
 : -5%	-9%
COc1ccc(S(=O)(=O)c2nnn(-c3cc(Cl)c(OC)cc3OC)c2C)cc1
 : -11%	-2%
CCOc1ccc(CCNC(=O)CSc2cc(=O)n(CC)c3ccccc23)cc1OCC
 : -27%	-22%
CCCCNC(=S)N/N=C/c1sccc1C
 : -9%	-9%
CCN(CC)CCCN(Cc1cc2cc(OC)ccc2[nH]c1=O)C(=O)Nc1ccc(F)cc1
 : .	-7%
Cc1ccsc1CN1CCc2nc(N3CCN(c4ccccc4F)CC3)ncc2C1
 : -26%	-28%
Cc1ccc(CNC(=O)c2c(-c3ccccc3)sc3ccccc23)o1
 : -26%	-7%

# Source: PubChem

# The order is random. About 0.88% of those tested had a hit in this group.
